Mtb hypoxia inh: inhibitors of hypoxia-regulated fluorescent reporter in Mycobacterium tuberculosis; M. tuberculosis hypoxia-regulated fluorescent reporter, fluorescence; fluorescence inhibition, % (no concentration beside the values); hit rate 0.1% among 300,000;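 active = 35 to 45% if threefold the growth effect, above 45% if 1.5-fold the growth effect; inactive = the rest, general growth blockers included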;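 note: wells of about 50 µL received 100 nL stock; 0% = vehicle wells and 100% = reference inhibitor wells; whole bacteria with a GFP reporter of the hypoxia response; strong numbers were not always called active; many hits fall short of the cut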
PrP 5UTR inh: inhibition of PrP 5' UTR reporter expression; cell-based PrP 5' UTR mRNA reporter, plate reader; inhibition, % (test concentration not listed); hit rate 0.35% among 340,000;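 active = every replicate at 50% or more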;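 note: 0 = median of the neutral control wells; tested in H4 reporter cells; numbers are from one replicate; inactives centre near -14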
Sa RN4220 lethal: kills Staphylococcus aureus RN4220. S. aureus RN4220 growth, OD600, 16 h. inhibition, % (no concentration beside the values). hit rate 0.33% among 330,000. AID 1259311;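 active = z-score of -3 or lower and OD600 up to 0.18 on both plates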;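 note: plate controls were untreated cells for no effect and reference antibiotic for full effect; stock transfer was 100 nL into about 80 µL; one replicate is shown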
BJeLR viability: BJeLR cell viability loss | BJeLR (HRASV12) viability, CellTiter-Glo ATP luminescence, 48 h; reference of the scale not given here | inhibition, % (test concentration not listed) | hit rate 0.17% among 300,000;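 active = replicate mean above 50%; inconclusive = above 50% but judged a plate artefact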;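 note: 50 nL library stock added to about 25 µL; numbers are from one replicate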
ugtP null kill: kills S. aureus RN4220 lacking UgtP; growth inhibition, % (test concentration not listed); hit rate 0.54% among 330,000; S. aureus RN4220 ugtP deletion, OD600 growth, 16 h; some inactives read as strong as hits; AID 1259309;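 active = z-score under -3 and OD600 up to 0.15 on both plates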;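 note: plate controls were untreated wells for no effect and antibiotic for full effect; wells of about 80 µL received 100 nL stock; the first replicate is given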
Autofluor counter: flagged as autofluorescent in microsphere protease counterscreen | compound autofluorescence counterscreen, microsphere flow cytometry; stronger effect = higher value | fluorescence intensity (no concentration beside the values) | hit rate 3.1% among 360,000;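 active = at least 3 SD above the mean of all compounds, about 16000 in these data; inconclusive = too few beads counted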;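 note: 100 nL of 1 mM stock went into each well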
Mtb hypoxia inh growth: also measured in Mtb hypoxia inh; calls as there; growth inhibition, %; measured here: M. tuberculosis growth (absorbance);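 0% = vehicle and 100% = reference antibiotic; read after six days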
* hit, by the source's call; ? = inconclusive; . = not tested or not shown; & = joins results of further samples.

Values run as follows: Mtb hypoxia inh	Mtb hypoxia inh growth	PrP 5UTR inh	Sa RN4220 lethal	BJeLR viability	ugtP null kill	Autofluor counter
#1 CC(=O)c1cccc(NC(=O)c2cccc(S(=O)(=O)N3CCOCC3)c2)c1
  12	7	-34	2.7	1	1	3606
#2 COc1ccc(S(=O)(=O)N2CCC(c3cc(-c4cccc5ccccc45)n[nH]3)CC2)cc1
  -6	17	-7	-0.9	6	-24	4491
#3 CC(C)=CC(=O)NCCc1ccccc1
  5	7	-21	3.7	-13	5	7597
#4 CC(=O)NC(C)C12CC3CC(CC(CC(=O)O)(C3)C1)C2 (stereo not given)
  -15	-10	-24	1.7	4	-2	10629
#5 Cc1cc2c(OCC(O)CNC(C)(C)C)cccc2[nH]1 (stereo not given)
  .	.	-28	-3.3	-7	0	2473
#6 O=C(CNC(=O)c1sc2ccccc2c1Cl)NCc1cccc(C(F)(F)F)c1
  0	9	-9	-1.0	-13	0	?
#7 C#CCNC(=O)C1=C[C@@H](C2CC2)C[C@@H](OCCCCO)O1
  .	.	-21	.	11	.	4378
#8 Cc1ccc(NC(=O)CN(C)C(=O)CSc2ccc3c(c2)OCCO3)cc1
  5	6	-9	3.4	.	5	4041
#9 Clc1cccc(Cl)c1-c1nnc2cccc(Cl)n12
  1	1	13	0.3	2	2	7637
#10 Cc1ccc(S(=O)(=O)N(C)c2cc(S(=O)(=O)N3CCC(C)CC3)c(C)cc2C)cc1
  .	.	13	0.9	1	20	2236
#11 Cc1cc(C)cc(NC(=S)/C(=C(\[O-])c2ccc(Cl)s2)[n+]2cccc(C)c2)c1
  11	8	-17	-4.5	-4	-3	4331
#12 Cc1ccc(NC=C(S(=O)(=O)c2ccccc2)S(=O)(=O)c2ccccc2)cc1
  0	2	-13	0.8	-9	-1	2404
#13 CCOC(=O)c1c(C)nc2c(c(SC)nn2-c2ccccc2)c1N
  10	1	7	1.9	-6	13	1992
#14 Cc1ccc(S(=O)(=O)NCCC(=O)NCc2ccc3c(c2)OCO3)cc1C
  .	.	3	-0.5	0	-7	4666
#15 CCCCSc1nc2[nH]ncc2c(=O)[nH]1
  -9	5	-28	-2.5	2	0	2069
#16 COc1ccc(CCNCc2c(OC)ccc3ccccc23)cc1
  12	4	-7	1.6	0	0	3936
#17 Cn1cnc2c(=O)[nH]cc([N+](=O)[O-])c21
  -1	3	-20	0.1	-2	4	2547
#18 COC(=O)c1cnn(-c2ccc(Cl)cc2)c1/C=N/NC(N)=S
  .	.	-19	.	-11	.	3555
#19 Cn1c(=N)n(CC(=O)C(C)(C)C)c2ccccc21
  .	.	-14	0.5	-5	-4	4790
#20 O=c1[nH]c(=O)n(-c2ccc(F)cc2)c(O)c1/C=C1\C=Nc2ccccc21
  .	.	-10	.	9	.	3147
#21 CCCCCC(=O)N[C@@H](c1ccccc1)[C@@H](O)C(=O)O[C@H]1C[C@@]2(O)[C@@H](OC(=O)c3ccccc3)C3[C@](C)(C(=O)[C@H](O)C(=C1C)C2(C)C)[C@@H](OC1OCC(O)C(O)C1O)C[C@H]1OC[C@@]31OC(C)=O (stereo not given in full)
  .	.	7	4.6	25	-3	5922
#22 Cc1cc(OCC(O)CN2CCc3ccccc3C2)cc(C(C)C)c1 (stereo not given)
  .	.	-27	.	6	.	2869
#23 O=c1cccc2n1CC1CC2CN(CC(O)CN2CC3CC(C2)c2cccc(=O)n2C3)C1 (stereo not given)
  10	5	-39	0.4	8	3	3098
#24 O=C(Nc1ccc2c(c1)OCCO2)N1CCN(c2ccccc2)CC1
  15	0	-19	-0.6	4	1	4627
#25 COC(=O)C1=C(NC(=O)c2ccccc2C)CCS1
  11	12	-5	-6.7	-2	13	3476
#26 CCOC(=O)N1CCC(Nc2c(NCCCN(CC)Cc3ccccc3)c(=O)c2=O)CC1
  5&17	10&10	-16&-16	-0.1&3.9	-12	-2&12	4400&6725
#27 COCCn1c(SCC(=O)N(C)c2ccccc2)nc2c([nH]c3ccccc32)c1=O
  8	8	-24	5.5	8	-5	7103
#28 O=C(Nc1ccc2c(c1)OCCO2)c1oc2ccccc2c1NC(=O)C1CC1
  6	5	-5	2.3	2	1	4092
#29 Cc1cnc(C(=O)NC(C)CCc2ccccc2)cn1 (stereo not given)
  38*	24*	0	-1.6	14	0	4136
#30 Cc1cc(C(=O)CSc2nnnn2-c2ccccc2)c(C)n1CC1CCCO1 (stereo not given)
  6	4	-112	1.1	-5	-3	9191

Full records from above. Order of values: Mtb hypoxia inh | Mtb hypoxia inh growth | PrP 5UTR inh | Sa RN4220 lethal | BJeLR viability | ugtP null kill | Autofluor counter
`Cc1cc(C(=O)CSc2nnnn2-c2ccccc2)c(C)n1CC1CCCO1` (stereo not given) reads 6 | 4 | -112 | 1.1 | -5 | -3 | 9191
`O=C(Nc1ccc2c(c1)OCCO2)c1oc2ccccc2c1NC(=O)C1CC1` reads 6 | 5 | -5 | 2.3 | 2 | 1 | 4092
`COCCn1c(SCC(=O)N(C)c2ccccc2)nc2c([nH]c3ccccc32)c1=O` reads 8 | 8 | -24 | 5.5 | 8 | -5 | 7103

Further records.
Values run as follows: Mtb hypoxia inh	Mtb hypoxia inh growth	PrP 5UTR inh	Sa RN4220 lethal	BJeLR viability	ugtP null kill	Autofluor counter
#31 C#CCOCCOCCOCCNc1nc(N2CCN(C(=O)CCCCCCCCCCNC(=O)Cn3cc(C[C@@H](C)O)nn3)CC2)nc(N2CCN(C(=O)CCCCCCCCCCNC(=O)[C@H](CCCN=C(N)N)n3cc(C[C@@H](C)CC)nn3)CC2)n1
  .	.	-32	.	-14	.	4709
#32 Cc1cc(C)c(C)c(S(=O)(=O)NCc2ccc(C(=O)N3CCCCC3)cc2)c1C
  .	.	-5	6.8	1	-3	4048
#33 CCOc1ccccc1-n1c(=S)sc2c(=O)n(-c3ccc(F)cc3)c(SCC(=O)O)nc21
  4	-2	-22	1.3	-11	7	3812
#34 CCOc1cc(C(=O)Nc2ccon2)cc(OCC)c1OCC
  -7	14	2	0.4	2	-6	11196
#35 O=C(Nc1ccc(F)cc1)C1CCN(C(=O)c2ccc(F)cc2)CC1
  8	9	-10	6.0	.	1	3931
#36 CCCCC(=O)N/N=C(C)/C=C/c1ccccc1F
  .	.	-63	.	-1	.	4547
#37 ON1C(c2ccccc2C(F)(F)F)N(O)[C@H]2CCCC[C@H]21 (stereo not given in full)
  8	5	-2	1.7	-22	2	4397
#38 CCC(OC(=O)C(NC(=O)c1ccccc1)c1ccccc1)C(=O)Nc1cc(C)on1 (stereo not given)
  1	-3	-6	7.6	-12	2	7900
#39 Cc1ccc(NC(=O)C2CCN(S(=O)(=O)c3ccc4c(c3)C(C)(C)C(=O)N4C)CC2)c(C)c1
  7	8	-4	-6.6	-2	13	4114
#40 Cc1ccc(-n2nc3c(=O)n(C(C)C(=O)NC4CC4)nc(C)c3c2C)cc1 (stereo not given)
  6	-8	0	2.3	0	4	4544
#41 CCC(=O)N(C)CCc1cc2c(c(OC)c1/C=N/NC(=O)c1ccncc1)OCO2
  .	.	-1	.	-8	.	3904
#42 Cc1ccc(NS(=O)(=O)c2c(C(=O)N3CCOCC3)c(C)n(C)c2C)cc1
  -7	-5	-5	2.4	-5	0	4179
#43 CCC(=O)Nc1ccc(C(=O)NNC(=O)c2cccs2)cc1
  3	5	-37	0.9	4	2	10782
#44 CCN(CC(=O)NCc1cccs1)CC(=O)Nc1ccc(C(N)=O)cc1
  10	9	.	4.3	.	8	.
#45 CCc1nc(N2CCN(S(C)(=O)=O)CC2)c2c3c(sc2n1)CCCC3
  0	6	-20	6.7	-5	15	4077
#46 COc1cc(/C=C2\SC(=O)N(c3cccc(Cl)c3)C2=O)cc([N+](=O)[O-])c1O
  9	-2	-6	5.0	.	12	4666
#47 NS(=O)(=O)c1ccc2nc(NC(=O)CS(=O)(=O)c3ccccc3)sc2c1
  9	-5	-8	3.2	-3	0	3952
#48 COCC(C)n1c(SCC(=O)NCCC2=CCCCC2)nc2ccccc2c1=O (stereo not given)
  5	6	-10	9.5	4	3	4510
#49 Cc1cc(C)cc(NC(=O)COC(=O)Cn2cnc3c2c(=O)n(C)c(=O)n3C)c1
  2	-6	-17	1.5	.	5	8303
#50 CCOC(=O)c1cc(-c2csc(COc3ccccc3)n2)on1
  9	9	-27	0.9	-12	0	9840
#51 COC(=O)c1ccc(NC(=S)Nc2ccccc2)cc1
  18	11	-34	4.7	6	-1	9402
#52 CCn1c(SCC(=O)N2CCN(C(=O)c3ccco3)CC2)nnc1C(C)C
  9	-1	-21	5.3	-6	12	4074
#53 O=C1C=C(c2ccc(Cl)cc2)OC2(CCCC2)O1
  7	7	-12	14	-7	2	2953
#54 CN(C)CCCN1C(=O)c2cccc3cccc(c23)C1=O
  7	-1	-2	5.5	-2	4	3724
#55 CCOC(=O)c1cnn(-c2nc(C)cc(C)n2)c1N
  .	.	-6	2.3	-1	6	4673
#56 Cc1ccc(N(CC(=O)NCc2cccnc2)S(C)(=O)=O)cc1C
  0	1	-14	-1.0	5	3	3758
#57 Cc1coc2c1c(C)cc1oc(=O)c(CC(=O)NCCCCCC(=O)O)c(C)c12
  -1	2	-22	4.3	-5	6	4129
#58 Cc1cccc(NC(=O)c2cc(Cl)nc3ccccc23)n1
  4	1	-10	3.0	-10	6	5120
#59 COc1ccc(C)cc1Nc1n[n+](-c2ccccc2)c(-c2ccc(OC)c(OC)c2OC)s1
  .	.	-23	-6.0	15	-20	4059
#60 O=C(Nc1ccccc1)c1cccc(S(=O)(=O)NCc2ccco2)c1
  11	6	-16	3.3	8	11	3094
#61 CCCCC1(C)NC(=O)N(CC(=O)Nc2ccc(S(=O)(=O)N3CCOCC3)cc2)C1=O (stereo not given)
  1	9	-19	-0.6	2	-3	4393
#62 COC(=O)CCn1nnc(-c2cccs2)n1
  -5	7	-17	2.5	-12	-2	5863
#63 COc1ccc(C2SCC(=O)N2c2c(C)n(C)n(-c3ccccc3)c2=O)cc1 (stereo not given)
  -8	-8	-8	-1.9	-17	-3	2447
#64 O=C(Nc1cccc2ncccc12)c1ccc([N+](=O)[O-])o1
  .	.	-14	3.5	-11	19	3601
#65 Cn1c(COc2ccccc2Br)nc2ccccc21
  10	6	-91	8.0	4	-2	3087
#66 Nn1c(SCC(=O)N2CCN(S(=O)(=O)c3ccccc3)CC2)nnc1-c1cccs1
  -16	7	-6	10	-7	1	2955
#67 CCCCN1CNC(=S)N(c2cc(C)ccc2C)C1
  -3	-1	7	-0.9	-13	0	21773*
#68 CCc1ccccc1Nc1nc(N)nc(COC(=O)c2cccn2C)n1
  8	7	-21	5.9	4	1	21076*
#69 Cc1nn(Cc2cccc(F)c2)c(C)c1NC(=O)c1c(Cl)cnn1C
  9	3	-5	4.4	-6	5	2253
#70 COc1cc(/C=C/C(=O)O)cc(S(=O)(=O)Nc2cc(Cl)c(Cl)cc2Cl)c1OC
  10	6	-2	4.8	-1	18	4574
#71 CCOC(=O)c1cc(-c2ccc(OC)cc2)n(CCC(=O)NCCN2CCC(C)CC2)c1C
  18	-1	-14	-0.2	-3	-5	2187
#72 CN(Cc1ccccc1)C(=O)COc1ccc2ccccc2c1
  11	-5	.	3.5	-4	5	.
#73 COc1ccc(C(CNC(=O)COc2ccc(Cl)cc2C)N2CCCCC2)cc1 (stereo not given)
  12	10	-15	6.5	1	1	5362

High-throughput results deposited in PubChem by several laboratories.
